ALR inh – inhibitors of human sulfhydryl oxidase ALR. P55789. purified ALR, DTT oxidation, H2O2 HRP-luminol luminescence. inhibition, % (no concentration beside the values). actives 3.8% (n = 290,000). AID 485317;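 active means mean and each replicate at 75% or more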;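 further: stock transfer was 7.5 nL into about 7.5 µL; 0% = neutral wells and 100% = wells with inactivated enzyme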
Target sequence (P55789 whole entry, looked up): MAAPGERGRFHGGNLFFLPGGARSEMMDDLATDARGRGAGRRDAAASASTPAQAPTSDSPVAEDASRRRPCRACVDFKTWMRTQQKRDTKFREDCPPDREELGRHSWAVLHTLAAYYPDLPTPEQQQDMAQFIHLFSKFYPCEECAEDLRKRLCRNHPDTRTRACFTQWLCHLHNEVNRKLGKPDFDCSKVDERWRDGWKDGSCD
rRNA inh HTS – inhibits bacterial ribosomal RNA function over humanized ribosomes; E. coli WT GFP vs humanized-ribosome RFP mutants, fluorescence, 24 h; stronger effect = lower value; DMSO median 0, no signal -100; GFP signal change (wild-type ribosome), % (test concentration not listed); actives 1.6% (n = 350,000);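 active means significant combined selectivity score with lowered wild-type GFP, culture density cut under 30%, mutant RFP and density less affected; inactive means any of these conditions unmet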; further: one replicate is shown; some compounds called inactive have numbers as strong as hits
LANA-H2B inh – blocks KSHV LANA binding to histone H2A/H2B; Q9QR71; cell-free LANA-H2A/H2B peptide, fluorescence polarization; inhibition, % (concentration not given with the values); actives 0.6% (n = 320,000); in the data active means inhibition mostly above about 10%, no sharp cut-off; inactive means mostly below about 6.7%;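 further: stock transfer was 7.5 nL into about 10 µL; 0% = median of vehicle wells and 100% = median of positive control wells; one replicate is shown; the record names a cut of 25% in any replicate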
Calb FLC – C. albicans growth modulation with fluconazole; C. albicans CaCi-2 (fluconazole-resistant clinical isolate) + fluconazole, Alamar Blue growth, 48 h; growth inhibition, % (no concentration beside the values); actives 0.57% (n = 300,000); AID 1979;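 active means most replicates above 75%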;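 further: all wells also contain fluconazole at 8 µg/ml as a sub-toxic cotreatment; 0% = median of DMSO wells and 100% = median of geldanamycin control wells; wells of about 8 µL received 7.5 nL stock; the first replicate is given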
Beta apoptosis – beta cell apoptosis inhibition | INS-1E cytokine-induced death, ATP luminescence, 48 h; percent of positive-control rescue, neutral wells zero | protection from apoptosis, % (concentration not given with the values) | actives 0.8% (n = 300,000);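 active means all replicates at 75% or more, or half of them and the mean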;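 further: 0% = cytokine-treated negative control wells and 100% = positive control rescue; higher means more ATP so stronger rescue from cytokine killing; wells of about 40 µL received 100 nL stock; the first replicate is given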
Bfl-1 A1 inh – inhibitors of the anti-apoptotic protein A1, read as caspase activation. MEF A1-2A-BIM cells, Caspase-Glo 3/7 luminescence, 3 h; percent of clofoctol response, vehicle zero. caspase activation, % (no concentration beside the values). actives 0.066% (n = 330,000);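 active means over half of replicate activation scores above 10%, or exactly half above 10 with the replicate mean above 10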;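 further: wells of about 30 µL received 50 nL stock; many hits fall short of the cut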
T cruzi inh – T. cruzi replication inhibition; T. cruzi beta-gal in NIH3T3, luminescence, 90 h; inhibition, % (test concentration not listed); AID 1885; actives 1.4% (n = 300,000);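 active means mean inhibition across valid replicates above about 55%, limit read from the data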;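 further: signal also drops with host cell toxicity which is not excluded here; 0% = plate median of DMSO wells and 100% = zero luminescence signal; higher percent means less beta-gal luminescence so fewer parasites; stock transfer was 50 nL into about 50 µL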
Beta2AR agonist – human beta-2 adrenergic receptor agonism by FAP | response, % (test concentration not listed) | P07550 | actives 0.43% (n = 340,000) | Am2.2-beta2AR cells, FAP receptor internalization, flow cytometry; reference of the scale not given here;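 active means response above a set limit, near 3 SD of response in nonfluorescent compounds, cut at about 42% in these data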;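 further: stock transfer was 100 nL into about 11 µL; a reference agonist was the positive control; negative values mostly stem from fluorescent compounds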
Target sequence (P07550 whole entry, looked up): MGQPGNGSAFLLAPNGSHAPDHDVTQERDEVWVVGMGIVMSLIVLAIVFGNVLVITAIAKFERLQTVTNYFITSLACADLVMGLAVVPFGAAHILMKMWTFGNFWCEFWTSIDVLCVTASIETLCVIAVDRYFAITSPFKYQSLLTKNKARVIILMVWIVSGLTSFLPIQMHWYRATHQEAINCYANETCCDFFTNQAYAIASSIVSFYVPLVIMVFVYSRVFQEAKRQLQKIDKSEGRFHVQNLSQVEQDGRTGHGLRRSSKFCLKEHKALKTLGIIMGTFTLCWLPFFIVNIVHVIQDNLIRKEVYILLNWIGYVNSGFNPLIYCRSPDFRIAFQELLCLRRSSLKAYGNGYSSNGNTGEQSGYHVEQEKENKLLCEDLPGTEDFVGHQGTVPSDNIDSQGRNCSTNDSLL
rRNA inh HTS OD600 – also measured in rRNA inh HTS; calls as there; OD600 change, %; measured here: OD600 growth;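 optical density of the mix in the first replicate; 0 = DMSO median and -100 = no signal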
rRNA inh HTS RFP – also measured in rRNA inh HTS; calls as there; RFP signal change, %; measured here: RFP humanized mutant strains;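 first replicate; 0 = DMSO median and -100 = no signal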
Starred values were filed as active, the others as inactive; / = no result given.

SMILES	ALR inh	rRNA inh HTS	rRNA inh HTS OD600	rRNA inh HTS RFP	LANA-H2B inh	Calb FLC	Beta apoptosis	Bfl-1 A1 inh	T cruzi inh	Beta2AR agonist
Cc1nc2nc(SCc3ccc([N+](=O)[O-])cc3)[nH]c2cc1Br	-11	9	9	-0.5	0.9	-6	-1	-0.1	2	-4
CCn1c(=O)cc(N2CCOCC2)[nH]c1=O	1	14	11	-1.7	3.7	-17	1	0.8	-33	2
O=C(NC(NC(=S)Nc1ccccc1C(=O)O)C(Cl)(Cl)Cl)c1cccc([N+](=O)[O-])c1 (stereo unspecified)	4	/	/	/	-5.9	3	2	0.6	-8	4
CC(C)c1ccccc1OS(N)(=O)=O	-2	7	10	15	-1.6	16	-6	0.7	-25	0
CCC(CC)NC(=O)CCc1nc2ccccc2c(=O)[nH]1	-13	/	/	/	0.0	0	-2	0.3	6	-3
O=C(O)C1CC=CCC1C(=O)NNS(=O)(=O)c1ccccc1 (stereo unspecified)	22	16	13	0.0	-5.5	11	/	-1.2	-18	10
COc1cccc(C(=O)Nc2ccc(NC(=O)C(C)(C)C)cn2)c1	-5	/	/	/	7.5	-3	1	-0.2	-8	-7
Cc1ccc(S(=O)(=O)NC(=NC2CCCCC2)c2ccc(Cl)cc2)cc1	-2	/	/	/	-2.1	11	0	0.2	20	1
COc1ccccc1N1C(=O)c2ccc(C(=O)Nc3ccc(C(=O)O)cc3)cc2C1=O	10	6	5	2.6	1.5	7	-2	1.0	0	4
CCOC(=O)CCN(Cc1ccccc1)S(=O)(=O)c1csc(C(N)=O)c1	-6	1	-9	1.2	6.7	6	-7	0.3	-6	15

Compound profiles (already shown). Order of values: ALR inh	rRNA inh HTS	rRNA inh HTS OD600	rRNA inh HTS RFP	LANA-H2B inh	Calb FLC	Beta apoptosis	Bfl-1 A1 inh	T cruzi inh	Beta2AR agonist
CCC(CC)NC(=O)CCc1nc2ccccc2c(=O)[nH]1 in the list: -13	/	/	/	0.0	0	-2	0.3	6	-3
O=C(O)C1CC=CCC1C(=O)NNS(=O)(=O)c1ccccc1 (stereo unspecified) in the list: 22	16	13	0.0	-5.5	11	/	-1.2	-18	10
COc1ccccc1N1C(=O)c2ccc(C(=O)Nc3ccc(C(=O)O)cc3)cc2C1=O in the list: 10	6	5	2.6	1.5	7	-2	1.0	0	4
CC(C)c1ccccc1OS(N)(=O)=O in the list: -2	7	10	15	-1.6	16	-6	0.7	-25	0
CCn1c(=O)cc(N2CCOCC2)[nH]c1=O in the list: 1	14	11	-1.7	3.7	-17	1	0.8	-33	2

(listing goes on)
SMILES	ALR inh	rRNA inh HTS	rRNA inh HTS OD600	rRNA inh HTS RFP	LANA-H2B inh	Calb FLC	Beta apoptosis	Bfl-1 A1 inh	T cruzi inh	Beta2AR agonist
COc1cc(CN(C)C(C)C(=O)Nc2ccc([N+](=O)[O-])cc2Cl)ccc1OC(F)F (stereo unspecified)	/	/	/	/	-0.9	2	0	0.0	42	-7
Cc1noc2ncnc(N3CCN(c4ccc(F)cc4)CC3)c12	2	8	4	1.0	0.6	47	-1	-0.1	-7	-4
CN(Cc1ccccc1)C(=O)COC(=O)c1ccc(Br)c(S(=O)(=O)N2CCOCC2)c1	0	-14	-13	4.1	1.0	/	-3	1.0	/	2
CCc1ccc2c(c1)[C@H]1OCC[C@H]1[C@@H](c1cccs1)N2	97*	/	/	/	-0.1	9	9	-0.5	-25	-7
Cc1ccc(N2C(=O)N(CC(=O)NCc3ccc(Cl)cc3)C(=O)C2C)cc1 (stereo unspecified)	-7	/	/	/	-2.0	2	3	0.0	-4	12
COc1cccc(C(=O)N=c2sc3c(C)ccc(OC)c3n2C)c1	/	2	12	2.0	6.2	-9	7	-8.6	4	-10
CCCc1nc2c(nnn2Cc2ccccc2)c(=O)[nH]1	-28	1	-8	1.6	-0.7	6	-6	-0.2	-9	-12
CC1CCCCC1NC(=O)c1ccc2c(c1)OCCO2 (stereo unspecified)	-7	3	-1	-2.3	-0.1	/	1	0.6	/	4
CC1(C)Cc2c(c(=S)nc(-c3ccccc3)n2Cc2cccnc2)CO1	/	/	/	/	-4.9	3	1	0.2	/	-4
COc1ccc([C@H]2CC(=O)C=C(c3cccc(C#N)c3)C2)cc1	-5	-19	-25	-14	-1.2	/	-6	-0.3	/	3
c1ccc(Cn2nnnc2CN2CCOCC2)cc1	37	/	/	/	-0.3	2	-3	1.6	2	2
CCCOc1ccc(C(=O)NNC(=S)NC(=O)c2cccs2)cc1	97*	-51	-74	-13	5.6	93*	41	1.3	21	-2
FC(F)(F)c1ccc(Cl)c(NC2=NCCCCC2)c1	0	8	7	-1.8	-2.0	-19	/	3.0	-8	-4
Cc1ccc(S(=O)(=O)N(C)C2(C)CCS(=O)(=O)C2)cc1 (stereo unspecified)	0	/	/	/	-0.3	-29	-1	0.2	-3	-3
COc1ccc(N2Cc3cccc(C(=O)N4CCOCC4)c3C2=O)cc1	-16	/	/	/	3.2	-5	-3	0.5	2	4
Cc1c(Br)c(C(F)(F)F)nn1CC(=O)NCCN1CCOCC1	-7	/	/	/	0.7	3	-14	0.0	-1	-3
Cc1onc(-c2c(F)cccc2Cl)c1C(=O)NCCc1ccc(S(N)(=O)=O)cc1	0	1	-2	0.5	1.8	3	-3	-0.8	-7	9
O=C(c1ccccc1)N1CCN(C(=O)C23CC4CC(CC(C4)C2)C3)CC1	-2	-19	-22	-9.5	1.3	-1	-5	-1.7	-4	5
CCOC(=O)c1sc(=NC(=O)/C=C/c2cccs2)n(C)c1C	/	10	2	0.4	2.4	5	0	-0.6	11	1
Cc1cc(Cl)c(S(N)(=O)=O)cc1OCC(N)=O	1	/	/	/	6.1	-4	-6	0.1	-2	-8

A second format for some results above.
Sequence of screens – ALR inh	rRNA inh HTS	rRNA inh HTS OD600	rRNA inh HTS RFP	LANA-H2B inh	Calb FLC	Beta apoptosis	Bfl-1 A1 inh	T cruzi inh	Beta2AR agonist
> FC(F)(F)c1ccc(Cl)c(NC2=NCCCCC2)c1
    0	8	7	-1.8	-2.0	-19	/	3.0	-8	-4
> Cc1ccc(S(=O)(=O)N(C)C2(C)CCS(=O)(=O)C2)cc1 (stereo unspecified)
    0	/	/	/	-0.3	-29	-1	0.2	-3	-3

(cont.)
SMILES	ALR inh	rRNA inh HTS	rRNA inh HTS OD600	rRNA inh HTS RFP	LANA-H2B inh	Calb FLC	Beta apoptosis	Bfl-1 A1 inh	T cruzi inh	Beta2AR agonist
CC(=O)c1c(C)[nH]c(C(=O)NCc2cccs2)c1C	0	/	/	/	3.1	-1	-1	1.3	-11	2
O=C(NC1CCCC1)C(NS(=O)(=O)c1cccc2nsnc12)c1ccccc1 (stereo unspecified)	-14	/	/	/	-1.2	15	1	-0.1	-17	2
COc1cc(C(=O)OCC(=O)Nc2c(F)c(F)c(F)c(F)c2F)cc(OC)c1OC	-3	/	/	/	-5.0	4	-3	-0.3	-6	-2
CCN(c1ccccc1)S(=O)(=O)c1cccc(C(=O)Nc2ccc(C)cn2)c1	0	-9	-40	-7.2	1.4	12	-20	-0.9	3	-2
CSC1=N/C(=C\c2ccccc2C)C(=O)S1	-5	0	4	-2.5	-5.5	3	-5	-0.1	-24	10
Cn1c(=O)c(-c2cccc(Cl)c2)c(O)c2ccccc21	-1	/	/	/	-6.3	-16	1	1.0	-5	3
COc1ccccc1-c1ccc(SCc2ccccc2F)nn1	-9	-36*	-25*	-2.7*	-0.3	-14	5	-1.2	4	17
Cc1cccc(NC(=O)CSc2nnc(C)c(=O)n2N)c1	-29	6	6	3.0	-0.8	-40	/	-0.7	-14	6
Clc1ccc(-c2csc(N3CCC(c4ccccc4)C3)n2)cc1 (stereo unspecified)	-9	/	/	/	0.0	-3	0	0.0	-13	-3
Cc1cccc(CCN(C(=O)Cc2cccs2)C(C(=O)NC2CCCCC2)c2cccnc2)c1 (stereo unspecified)	-13	/	/	/	1.9	5	7	-0.5	50	-2
O=C(O)c1cccnc1SCc1ccccc1Cl	6	-22*	7.0*	-4.1*	8.1	-38	-5	0.0	-10	8
[O-]C1=N/[N+](=C/c2ccc(Cl)c(Cl)c2)CC1	21	/	/	/	0.5	9	3	-0.2	-2	6
COc1cc(NC(=O)c2ccc([N+](=O)[O-])cc2)ccc1NC(=O)C(C)C	-13	8	10	-2.0	4.0	3	-2	0.5	-2	-7
Cc1ccc(C(CC(=O)N2CCNCC2)c2ccccc2)c(O)c1C (stereo unspecified)	0	-3	-13	-0.7	-1.6	16	-1	0.8	-8	-3
COc1ccccc1C(=O)COC(=O)C1CCN(S(=O)(=O)c2ccc(C)c(C)c2)CC1	/	5	14	-1.6	-2.3	-4	-2	0.7	22	7
Cc1ccc(Sc2ncccc2[N+](=O)[O-])cc1	-26	1	7	0.2	2.8	8	-4	-0.4	-16	31
COCCNC(=O)CN(c1cc(C(F)(F)F)ccc1Cl)S(C)(=O)=O	-5	/	/	/	3.7	20	-3	0.0	-14	-7
Cn1c2c(c(=O)n(C)c1=O)CN(CC1CCCO1)CN2 (stereo unspecified)	/	/	/	/	-0.2	19	-1	0.0	-5	-8
O=C1N/C(=C/c2ccc(N3CCOCC3)cc2)C(=O)N1Cc1ccc(F)cc1	-2	/	/	/	2.0	-4	0	0.9	8	3
Cc1cc(C)cc(N(CC(=O)N2CCn3c2nc2ccccc23)S(=O)(=O)c2c(C)noc2C)c1	4	4	1	16	0.1	-7	/	1.3	-20	13
COc1cccc(NC(=O)CC(C)=O)c1	6	16	8	-1.8	-2.7	6	-6	-0.3	10	3
CN(C(=O)CSc1nc2cc(Cl)ccc2c(=O)n1Cc1ccco1)C1CCS(=O)(=O)C1 (stereo unspecified)	34	-14	-32	-1.7	-2.4	31	-4	-0.4	8	15
COC(=O)CCN1CCC(c2cc(-c3cccc(C(F)(F)F)c3)n[nH]2)CC1	4	5	7	2.0	-0.6	7	-6	-0.6	9	0
CC1CCN(C(=O)c2cc(Cl)ccc2NC(=O)c2ccco2)CC1	-1	-1	-7	-1.7	2.7	-6	/	1.4	9	-9
CC(C)n1c(=S)[nH]c2c1c(=O)[nH]c(=O)n2C	13	/	/	/	2.5	4	3	-1.9	-7	-2
CCCNC(=O)COC(=O)c1cc(-c2ccc(OC)cc2)nc2ccccc12	-5	9	16	-1.6	-4.3	-5	5	-1.8	-8	-2
CN(C)c1nnnn1-c1cccc(Oc2ncc(C(F)(F)F)cc2Cl)c1	-1	-29	-40	-13	2.3	-11	-8	1.0	12	0
Cc1cc(N/N=C/c2ccc(N(C)C)cc2)nc(NCc2ccccc2)n1	30	-5	-3	4.1	1.2	15	14	-0.1	/	17
CCc1ccc(S(=O)(=O)NCc2csc(C)n2)cc1	-1	3	8	-1.6	-0.9	15	-3	0.4	-7	3
Cc1ccc(-n2nc3c(c2NC(=O)CCC2CCCCC2)CS(=O)C3)cc1 (stereo unspecified)	/	-12	-43	-1.8	0.6	0	-3	0.2	-7	-8
Fc1ccccc1Nc1n[nH]c(=S)s1	99*	4	4	-3.2	0.8	0	2	-0.8	14	6

An excerpt from above in order of their number in rRNA inh HTS OD600, ascending.
Structure,rRNA inh HTS OD600
CN(C)c1nnnn1-c1cccc(Oc2ncc(C(F)(F)F)cc2Cl)c1,-40
Cc1cc(N/N=C/c2ccc(N(C)C)cc2)nc(NCc2ccccc2)n1,-3
COc1cccc(NC(=O)CC(C)=O)c1,8

This is a subset (hit frequency here may not be typical).
